D2 agonist: human D2 receptor agonism in beta-arrestin assay | P14416 | DiscoveRx PathHunter D2 beta-arrestin, luminescence, 90 min; 100% = 57 uM dopamine signal | activation, % (test concentration not listed) | hit rate 0.084% among 360,000; in the data active = activation above about 40%; inconclusive = about 15% to 40%; inactive = below about 15%; also: compound concentration not given in the record; the text of the record calls up to 30% inactive
Target sequence (P14416 whole entry, looked up): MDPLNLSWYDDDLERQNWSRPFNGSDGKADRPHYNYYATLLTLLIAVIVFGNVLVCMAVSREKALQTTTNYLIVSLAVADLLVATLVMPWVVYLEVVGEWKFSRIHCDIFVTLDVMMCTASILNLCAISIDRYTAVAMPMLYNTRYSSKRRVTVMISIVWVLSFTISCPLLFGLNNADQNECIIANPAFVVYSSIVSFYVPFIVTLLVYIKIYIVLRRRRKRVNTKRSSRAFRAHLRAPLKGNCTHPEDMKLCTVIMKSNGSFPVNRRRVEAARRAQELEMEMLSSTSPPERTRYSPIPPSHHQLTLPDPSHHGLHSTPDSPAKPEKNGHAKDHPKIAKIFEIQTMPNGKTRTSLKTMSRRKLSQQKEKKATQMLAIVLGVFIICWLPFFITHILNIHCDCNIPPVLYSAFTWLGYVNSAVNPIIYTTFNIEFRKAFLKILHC
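DiscoveRx PathHunter D2 beta-arrestin cells (2,100/well) attached overnight, then compound-stimulated 90 min at 37 C in HBSS/10 mM HEPES/0.1% Tween-20 buffer; beta-galactosidase complementation read by luminescence after 1 h at ambient temperature. Dopamine 57 uM final (EC100) as control.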
TRPML1 blocker: inhibitors of human TRPML1 channel. activity change, negative = inhibition, % (no concentration beside the values). hit rate 0.02% among 390,000. TRPML1-inducible cells, Ca2+ dye fluorescence, FDSS; stronger effect = lower value; inhibition of EC80 agonist-evoked calcium signal. AID 624415. Q9GZU1; in the data active means activity change below about -50%; inconclusive means about -30% to -50%; inactive means above about -30%;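 also: stimulus is agonist 54-4 at its EC80 concentration; % is scaled to controls: 0 for no effect and ±100 for the full control effect; compound concentration not given in the record; the text of the record puts the active cut at -80%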
Target sequence (Q9GZU1 whole entry, looked up): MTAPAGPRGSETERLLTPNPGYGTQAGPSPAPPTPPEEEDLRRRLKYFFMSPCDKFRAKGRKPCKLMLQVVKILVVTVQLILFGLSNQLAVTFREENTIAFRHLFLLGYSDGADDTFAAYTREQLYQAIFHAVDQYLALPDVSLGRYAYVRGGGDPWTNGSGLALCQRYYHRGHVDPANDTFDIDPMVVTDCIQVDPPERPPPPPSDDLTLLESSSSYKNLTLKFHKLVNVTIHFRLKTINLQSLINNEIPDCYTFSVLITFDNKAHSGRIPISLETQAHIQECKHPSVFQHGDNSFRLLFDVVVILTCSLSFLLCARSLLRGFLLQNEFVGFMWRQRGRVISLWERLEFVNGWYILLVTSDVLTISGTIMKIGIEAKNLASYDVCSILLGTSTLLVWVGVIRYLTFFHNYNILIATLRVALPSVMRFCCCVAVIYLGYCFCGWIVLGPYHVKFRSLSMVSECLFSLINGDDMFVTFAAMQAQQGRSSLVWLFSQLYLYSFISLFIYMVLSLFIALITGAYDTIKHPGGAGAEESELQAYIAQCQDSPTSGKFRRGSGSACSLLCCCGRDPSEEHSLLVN
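Tet-induced TRPML1-DL cells loaded with Ca8 no-wash calcium dye were read kinetically on FDSS. Compound addition was followed by EC80 agonist 54-4 (4 uM final); inhibition was read over 110 s.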
PINK1 expr mod: modulators of PINK1 expression. AID 624263. PINK1 immunofluorescence, high-content cytometry, 24 h. hit rate 0.2% among 410,000. Potency, µM (highest dose often 76.6 µM), inactives show at the highest dose activation (PINK1 increase), actives largely listed as activators; active = well fitted activation curve with a large enough effect; inconclusive = small, poorly fitted or top-dose-only effect; inactive = flat fitted curve, though single readings scatter; cell line not stated here;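 also: potency is read from the fitted curve at half-maximal effect; % of control where 0% means no effect; nearly all actives have a fitted effect of over 65% in size; a mitochondrial uncoupler was the plate control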
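Decision-based qHTS: stable cells, 24 h exposure to five compound concentrations, CCCP as control. Fixed cells stained for PINK1 plus nuclear, mitochondrial and cell markers, cytometer read.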
D2 PAM: potentiates the human D2 dopamine receptor allosterically; P14416; DiscoveRx D2 beta-arrestin cells, luminescence, 90 min; 100% = 57 uM dopamine signal; potentiation, % (concentration not given with the values); hit rate 0.23% among 360,000; AID 624464; active = potentiation of 50% or more; inconclusive = 30% to 50%; inactive = 30% or less;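 also: compound concentration not given in the record; tested on top of an EC20 dose of dopamine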
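PathHunter D2 cells, attached overnight at 37 deg C, received compound in DMSO plus dopamine at EC20 (50 nM final) for 90 min at 37 deg C. Beta-arrestin recruitment was read as luminescence after 1 h with detection reagent at ambient temperature.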
TRPML1 ag: agonists of human TRPML1 channel; Q9GZU1; TRPML1-expressing cells, Ca2+ dye fluorescence, FDSS; host cell line not named in the record; reference of the full effect not given here; activation, % (test concentration not listed); hit rate 0.12% among 410,000; AID 624414; in the data active = activation above about 50%; inconclusive = about 30% to 50%; inactive = below about 30%; also: 0% is about no effect; the text of the record puts the active cut at 80%
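Kinetic FDSS Ca2+ read in Tet-induced TRPML1-DL cells (ABD Ca8 dye plus quencher, 45-90 min RT loading): baseline, then compound, then 110 s agonist window; EC80 agonist 54-4 at 4uM final added afterwards for a 110 s antagonist window.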
Six1-Eya2 inh: inhibitors of human Six1/Eya2 interaction; hit rate 0.56% among 360,000; AID 651725; activity change, % (no concentration beside the values); AlphaScreen GST-Six1/His-Eya2 binding, biochemical; stronger effect = lower value; control for the full effect not named in the record; in the data active = activity change below about -65%; inconclusive = about -30% to -65%; inactive = above about -30%; also: % is scaled to controls: 0 for no effect and ±100 for the full control effect; compound concentration not given in the record
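Six1/Eya2 binding was read as AlphaScreen signal after compounds were pinned into GST-Six1 plus His-tagged Eya2 (5X stock 250/500 nM) in pH 8.0 Tris/NaCl/TCEP buffer, beads added, then incubated 1 h, 37 C, dark.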
Numbers without * were called inactive; x = no result given; & = joins results of further samples; [ ] = another dose, or the depositor's remark.

1. CC(C)NC(=O)N(C)C[C@H]1Oc2ccc(NS(=O)(=O)c3ccc(Cl)cc3)cc2CC(=O)N([C@@H](C)CO)C[C@@H]1C
2. Cc1ccc(NC(=O)C2CCN(S(=O)(=O)c3c(C)nn(C)c3C)CC2)c(Cl)c1
3. CC1CCCC(C)N1C(=O)CSc1nc(N)cc(N)n1 (stereo unspecified)
4. COC(=O)C1=C(C)N(CCc2ccccc2)C(=O)C1(NS(=O)(=O)c1ccc(NC(C)=O)cc1)C(F)(F)F (stereo unspecified)
5. COc1ccc(NC(=O)c2cc(-c3cc(F)ccc3OC(C)C)n[nH]2)cc1OC
6. CC1CC(C)(C)N(C(=O)NC2CCCCC2)c2ccccc21 (stereo unspecified)
7. O=C(C1CC(=O)N(C2CCCC2)C1)N1CCN(c2cccc(C(F)(F)F)c2)CC1 (stereo unspecified)
8. CCCCC(=O)N(C)c1c(CC)nc2c(OCCOc3ccc(F)cc3)cccn12

compound no.	1	2	3	4	5	6	7	8
D2 agonist	-3.2	-2.2	-5.0	1.7	2.9	-0.2	6.0	-2.4
TRPML1 blocker	-9.4	-6.3	1.7	-0.9	x	15.7	38.5	x
PINK1 expr mod	1.0%	-1.2%	-1.6%	9.8%[38.3 µM]	-0.1%	-2.2%	-2.1%	0.6%
D2 PAM	-9.2	-9.0	-4.1	-5.0	1.0	-5.0	6.6	-3.8
TRPML1 ag	-0.5	-0.6	0.4	0.0	-0.9	0.3	1.9	-0.8
Six1-Eya2 inh	-9.2	-6.9	10.5	3.4	-6.8	10.8	1.6	6.3

9. CC1(C)Cc2ccccc2-c2nc(CN3CCOCC3)[nH]c(=O)c21
10. COc1ccc(NC(=O)CCN2C(=O)c3ccccc3S2(=O)=O)c(OC)c1
11. CC[C@H](C)[C@H](NS(=O)(=O)c1ccc(C)cc1)C(=O)N1CCC(C(=O)N[C@H](C(=O)O)C(C)C)CC1
12. Cc1nnc(SCC(=O)Nc2c(Cl)cccc2Cl)[nH]c1=O
13. CC(C)(C)NC(=O)NCCc1ccccc1
14. CC(=O)O[C@H](COc1c2ccoc2cc2oc(=O)ccc12)C(C)(C)O
15. Cc1ccc(/C=N/NC(=O)c2nnn(-c3nonc3N)c2CSc2ccccc2)s1
16. CN(C)CCOC(=O)CCc1ccccc1

compound no.	9	10	11	12	13	14	15	16
D2 agonist	-2.2	2.2	-2.7	-6.2	0.6	1.0	1.5	0.4
TRPML1 blocker	-11.2	-5.9	-5.9	-1.5	-3.2	12.7	-5.4	-4.5
PINK1 expr mod	-1.4%	0.3%	7.1%[38.3 µM]	-0.6%	0.5%	-0.5%	7.1%	1.7%
D2 PAM	-4.8	-1.0	7.8	-4.6	0.4	-1.4	5.3	5.1
TRPML1 ag	0.6	-0.1	0.7	-0.3	-0.2	-0.6	1.6	-0.3
Six1-Eya2 inh	5.6	3.3	10.3	6.9	-1.1	0.4	4.5	7.0

17. Cc1ccc(-c2nn(CC(=O)NCC3CCCO3)c(=O)c3ccccc23)cc1 (stereo unspecified)
18. CC(=O)NC(CC(=O)OCC(=O)Nc1cc(S(=O)(=O)N2CCCCC2)ccc1C)c1ccccc1 (stereo unspecified)
19. Cc1ccccc1-c1nnc(-c2cccs2)o1
20. N=C1N(c2ccccc2)C(=S)C(=Nc2ccccc2)N1c1ccccc1
21. O=C(COC(=O)/C=C/c1ccc(C(F)(F)F)cc1)NCC1CCCO1 (stereo unspecified)
22. CCCn1c(N)c(C(=O)CSc2n[nH]c(-c3ccccc3F)n2)c(=O)n(C)c1=O
23. Cc1cc(C(=O)CC#N)c(C)n1CC(F)(F)F
24. Cn1cccc1/C=N/NC(=O)CSc1nc2ccccc2n1C

compound no.	17	18	19	20	21	22	23	24
D2 agonist	-2.4	0.8	-3.4	-1.6	-1.5	-0.3	-2.4	-1.0
TRPML1 blocker	4.6	24.9	48.2	-16.7	19.5	22.3	1.4	-3.9
PINK1 expr mod	1.5%[38.3 µM]	1.4%	1.5%	8.6%	-1.0%	0.7%	0.7%	-1.0%
D2 PAM	-7.7	-7.1	-14.9	-11.0	-4.5	0.7	-1.4	-10.2
TRPML1 ag	0.1	1.6	0.9	3.2	-0.3	0.2	-1.1	0.0
Six1-Eya2 inh	-1.5	5.5	6.7	-17.6	7.6	-4.7	-6.0	-5.4

Sorted by value in PINK1 expr mod (ascending): 5 of the compounds above.
item	Molecule	D2 agonist	TRPML1 blocker	PINK1 expr mod	D2 PAM	Six1-Eya2 inh
21	O=C(COC(=O)/C=C/c1ccc(C(F)(F)F)cc1)NCC1CCCO1 (stereo unspecified)	-1.5	19.5	-1.0%	-4.5	7.6
23	Cc1cc(C(=O)CC#N)c(C)n1CC(F)(F)F	-2.4	1.4	0.7%	-1.4	-6.0
18	CC(=O)NC(CC(=O)OCC(=O)Nc1cc(S(=O)(=O)N2CCCCC2)ccc1C)c1ccccc1 (stereo unspecified)	0.8	24.9	1.4%	-7.1	5.5
19	Cc1ccccc1-c1nnc(-c2cccs2)o1	-3.4	48.2	1.5%	-14.9	6.7
20	N=C1N(c2ccccc2)C(=S)C(=Nc2ccccc2)N1c1ccccc1	-1.6	-16.7	8.6%	-11.0	-17.6

More compounds.
25. CC(C)CC(=O)N1CCN(Cc2ccc3ccccc3c2)CC1
26. COc1cccc(-n2ccnc2SCC(=O)Nc2cccc(C)c2C)c1
27. CCc1nnc(NC(=O)CSc2nnc(-c3ccco3)n2CCOC)s1
28. CC(C)C(NC(=O)c1ccco1)C(=O)NCC(c1ccco1)N(C)C (stereo unspecified)
29. Cc1ccc2c(c1)cc(C(=O)NCc1ccccc1)n2C
30. Cc1cnc(C)c(N(C)NC(=S)Nc2ccccc2)n1
31. COC(=O)c1c(NC(=O)C(=O)NCCCN2CCOCC2)sc2c1CCCC2
32. COc1cc(-c2nnn(CC(=O)NCc3ccccc3)n2)cc(OC)c1OC

compound no.	25	26	27	28	29	30	31	32
D2 agonist	-0.1	x	-1.4	-3.2	-0.2	0.1	-1.6	-0.4
TRPML1 blocker	x	14.1	6.8	-3.8	-2.8	5.7	-13.4	26.1&-10.0
PINK1 expr mod	1.0%	-4.4%	0.4%	-3.3%	0.2%	3.7%	-1.7%	7.0%&12.5%
D2 PAM	-17.6	x	-3.6	-7.2	-2.8	-16.9	-7.8	-2.4
TRPML1 ag	x	1.6	-0.3	-0.6	-0.3	0.3	-0.7	2.1&4.1
Six1-Eya2 inh	0.5	x	12.7	-0.5	2.4	7.6	4.6	12.9

33. Clc1ccc(-c2nc3c4ccccc4ccn3c2Cc2ccccc2)cc1
34. CCOC(=O)C1(Cc2cccc(OC)c2)CCN(Cc2cccc3cnccc23)CC1
35. CCOC(=O)C1(C(=O)OCC)NC(=O)CC1C(C)C (stereo unspecified)
36. Cc1cc(C)cc(N(CC(=O)NCc2ccccc2Cl)S(=O)(=O)c2c(C)[nH]c(=O)[nH]c2=O)c1
37. O=C(Nc1nc(C2C3CC4CC(C3)CC2C4)cs1)c1cc2cc([N+](=O)[O-])ccc2oc1=O (stereo unspecified)
38. Cc1cc(C)cc(Oc2ccc(NC(=O)C3CC=CCC3C(=O)O)cc2)c1 (stereo unspecified)
39. CC1(C)CC(=O)c2cc(C(=O)N3CCCC(C)(C)C3)c(=O)n(-c3ccccc3)c2C1
40. COc1ccc(C(=O)N[C@H](C(=O)Nc2nc3c(s2)CCCC3)C(C)C)cc1

compound no.	33	34	35	36	37	38	39	40
D2 agonist	0.5	-3.3	0.2	-1.3	-0.5	1.9	2.8	0.1
TRPML1 blocker	x	16.1	2.3	-12.0&11.5	3.9	-10.9	-14.1	-2.1
PINK1 expr mod	3.0%	3.3%	0.5%	-0.4%&0.3%	5.6%	2.2%	-0.1%	2.1%
D2 PAM	x	-5.9	2.5	-4.8	-3.6	0.7	-4.9	-34.8
TRPML1 ag	x	1.9	0.1	0.3&-0.6	0.2	-1.3	0.5	1.4
Six1-Eya2 inh	0.0	-9.8	4.0	-1.9	-5.7	-3.8	8.1	-11.9

41. CC(C)NC(=O)c1onc(CSc2ccc(Cl)cc2)c1C(=O)O
42. COCCCNC(=O)Cn1c(=O)nc(-c2ccccc2)c2ccccc21
43. Cc1[nH]n(-c2ccccc2)c(=O)c1C=NC1CCCCCC1
44. Cc1ccccc1-c1csc(C(O)c2ccccc2)n1 (stereo unspecified)
45. O=c1nc(N/N=C/C=C/c2ccccc2)cn[nH]1
46. O=C(NCCc1ccc(Cl)cc1)c1cccc(N2CCCC2=O)c1
47. CN1CCN(C(=O)c2cc(=O)c3cc(Cl)ccc3o2)CC1
48. CC(=O)Nc1ccc(NC(=O)C(C)OC(=O)CCc2nc3ccccc3s2)cc1 (stereo unspecified)

compound no.	41	42	43	44	45	46	47	48
D2 agonist	3.2	x	0.1	-7.1	-7.3	1.1	0.9	5.5
TRPML1 blocker	-3.1	12.4	-16.5	x	-18.5	0.9	4.1	8.3
PINK1 expr mod	-0.1%	-0.6%	0.7%	3.5%	-0.9%	-1.0%	0.2%	0.6%
D2 PAM	18.3	x	-6.1	-6.3	-4.6	-10.5	-4.3	2.2
TRPML1 ag	-0.3	2.3	0.4	-0.5	0.3	-1.0	0.2	0.0
Six1-Eya2 inh	-0.7	x	-8.7	14.1	-25.8	4.6	3.4	4.1

49. COc1ccc(S(=O)(=O)N2CCCCC2)cc1NC(=O)Cc1ccsc1
50. Cc1ccc(NC(=O)CSc2nnc(-c3ccc(S(=O)(=O)N4CCCC4)cc3)o2)cc1C
51. CCC(Sc1nc2ccc(C)cc2[nH]1)C(=O)O (stereo unspecified)
52. Cc1cc(C)cc(C(=O)N2CCN=C2SCc2ccc([N+](=O)[O-])cc2)c1
53. CCCN1CCN(C(=O)Cn2cnc3sc(C)c(S(=O)(=O)N4CCC(C)CC4)c3c2=O)CC1
54. Cc1ccc2oc(=O)cc(/C=C/c3ccccc3)c2c1
55. COc1ccc(-c2ccc(=O)n(CC(=O)NCCc3ccccc3)n2)cc1
56. O=C(CN1C(=O)N/C(=C\c2ccccc2OCc2ccc(C(=O)O)cc2)C1=O)Nc1ccc(F)cc1

compound no.	49	50	51	52	53	54	55	56
D2 agonist	6.8	-2.7	-0.6	-1.8	3.1	-8.1	x	0.5
TRPML1 blocker	40.5	-9.9	13.3	19.7	-0.3	-2.8	7.8	1.0
PINK1 expr mod	0.8%	1.8%[38.3 µM]	x	0.9%	0.7%	3.9%	1.1%	3.2%
D2 PAM	-9.2	4.0	-5.3	-22.5	-4.6	-25.8	x	-3.4
TRPML1 ag	3.0	0.4	-0.4	-0.4	0.0	2.9	2.2	1.4
Six1-Eya2 inh	13.1	-5.3	-0.6	4.3	-6.1	2.9	x	-11.6

Full records, quoted from the list:
CCCN1CCN(C(=O)Cn2cnc3sc(C)c(S(=O)(=O)N4CCC(C)CC4)c3c2=O)CC1 across the screens: D2 agonist = 3.1; TRPML1 blocker = -0.3; PINK1 expr mod = 0.7%; D2 PAM = -4.6; TRPML1 ag = 0.0; Six1-Eya2 inh = -6.1
CCC(Sc1nc2ccc(C)cc2[nH]1)C(=O)O (stereo unspecified) across the screens: D2 agonist = -0.6; TRPML1 blocker = 13.3; PINK1 expr mod = x; D2 PAM = -5.3; TRPML1 ag = -0.4; Six1-Eya2 inh = -0.6
